AmpC inh no det: AmpC beta-lactamase inhibition, detergent-free assay; P00811; AmpC nitrocefin hydrolysis, absorbance 480 nm, no detergent; potencies from a single point are estimates; Potency, µM (titrated, usually from 28.7 µM), inactives show at the top dose activity change, negative = inhibition; hit rate 1.8% among 71,000; active = falling curve, for most hits resting on a single point; inconclusive = weak or doubtful change; inactive = flat or rising curve; also: % of control where 0% means no effect; about half of the hits show no inhibition at the top dose; a quarter of the inactives give rising signals
Target sequence (P00811 whole entry, looked up): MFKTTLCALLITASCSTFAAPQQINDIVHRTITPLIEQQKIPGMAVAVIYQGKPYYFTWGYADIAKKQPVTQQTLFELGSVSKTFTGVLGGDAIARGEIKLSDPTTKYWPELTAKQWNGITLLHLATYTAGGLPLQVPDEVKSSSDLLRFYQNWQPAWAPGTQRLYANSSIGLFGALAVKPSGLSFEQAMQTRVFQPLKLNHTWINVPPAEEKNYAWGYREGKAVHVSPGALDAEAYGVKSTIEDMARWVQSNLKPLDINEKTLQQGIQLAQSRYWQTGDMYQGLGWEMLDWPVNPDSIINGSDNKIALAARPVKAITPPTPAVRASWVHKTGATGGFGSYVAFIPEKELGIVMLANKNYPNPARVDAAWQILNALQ
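AmpC, 20 mM phosphate pH 7.0; 15 min cpd preinc, RT; start with nitrocefin (800 uM stock); A480 kinetic read, 20 s intervals, 4 min. No-enzyme wells = negative control.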
* marks the source's active call; other numbers are inactive results; ? = inconclusive; & = joins results of further samples; [ ] = dose if it differs, or a comment. Potency is read from the fitted curve at half-maximal effect. Not all compounds are listed (hit frequency here may not be typical).

SMILES	AmpC inh no det
COC(=O)c1ccc2c(=O)n(CC3CCCO3)c(SCC(=O)Nc3ccccc3OC)nc2c1 (stereo unspecified)	107%
Cc1cc(C(=O)CSc2nnc(C3COc4ccccc4O3)n2C)c(C)n1-c1ccc(F)cc1 (stereo unspecified)	-18%
COc1nc(N(C)C)nc(-n2nnc(C(C)=O)c2C)n1	0%
Cc1ccc(S(=O)(=O)Nc2cc(C(=O)N3CCOCC3)ccc2N2CCCCC2)cc1	102%
COC(=O)c1ccccc1NC(=O)CN(C)S(=O)(=O)c1ccc(OC)c(C)c1	27%
CCOc1ccc(-c2nn[nH]n2)cc1	-10%
COCCn1c(-c2ccccc2F)n[nH]c1=S	2%
COc1cc(Cn2c(-c3nonc3N)nc3ccccc32)ccc1C	-24%
Cc1ccc2oc3c(c(=O)c2c1)C(c1cccc(O)c1)N(c1ccccn1)C3=O (stereo unspecified)	6%
c1ccc(Nc2nc(-c3cccnc3)cs2)nc1	-10%
COc1ccc(N=c2scc(-c3ccc(S(=O)(=O)N4CCOCC4)cc3)n2CCCO)cc1	-5%
COc1ccc(NC(=O)c2cnn3c(C(F)(F)F)cc(-c4ccco4)nc23)cc1OC	13%
O=[N+]([O-])c1c(Cl)c(Cl)cc(Cl)c1Cl	4%
O=C1Nc2ccc(S(=O)(=O)N3CCOCC3)c3cccc1c23	-4%
Cc1cccc(OCCCC(=O)Nc2ccc(S(=O)(=O)Nc3onc(C)c3C)cc2)c1C	-4%
Cc1cc(C)n2nc(CC(=O)NC3CCCCCC3)nc2n1	-1%
Cc1ccc(NC(=O)CCCC(=O)O)c(Br)c1	-15%
COc1cccc(CNC(=O)c2ccccc2N)c1	43%
O=C(Nc1ccccc1C(F)(F)F)N1CCC(n2c(=O)[nH]c3ccccc32)CC1	84%
CCN1C2=C(C(=O)CCC2)C(c2ccc(O)c(Br)c2)C2=C1CCCC2=O	-10%
O=C(CSc1nnc(CNC(=O)c2ccccc2F)o1)c1ccccc1	-12%
O=C(Nc1ccc2c(c1)OCO2)c1ccc(Br)c(S(=O)(=O)N2CCCC2)c1	-20%
CC(=O)c1ccc(NC(=O)C2CCCN2S(=O)(=O)c2ccc(C)cc2)cc1 (stereo unspecified)	16%
COC(=O)c1cc(Br)c(=O)n(Cc2ccc(OC)c(OC)c2)c1	3%
CCNc1ncc2nc(-c3ccc(F)cc3)c(=O)n(CCC#N)c2n1	7%
Cc1c(C(=O)O)oc2ccc(S(=O)(=O)N3CCC(C)CC3)cc12	-16%
COc1cc(-c2nnn(CC(=O)NC3CCS(=O)(=O)C3)n2)ccc1OCc1ccccc1 (stereo unspecified)	127%
O=C(O)c1ccc(-n2cccc2)cc1O	-8%
CCN(CC)S(=O)(=O)c1ccc2nc(COC(=O)c3n[nH]c4ccccc34)[nH]c2c1	-8%
COc1ccc(OC)c(NS(=O)(=O)c2cc(OC)ccc2OC)c1	10%
CN(C)S(=O)(=O)c1cccc(C(=O)N2CCN(Cc3ccccc3)CC2)c1	81%
CN(C)c1ccc(C(c2nnnn2C(C)(C)C)N2CCc3ccccc3C2)cc1 (stereo unspecified)	31%
c1ccc(Cc2nn3c(Cn4cnc5ccccc54)nnc3s2)cc1	42%
COc1ccc(N(CC(=O)NC2CCCC2)C(=O)Cn2nnc(-c3ccc(C)cc3)n2)cc1OC	97%
O=C(C1CCN(C2CC(=O)N(c3ccc(F)cc3)C2=O)CC1)N1CCOCC1 (stereo unspecified)	3%
O=C1CC(c2ccccc2)C(C(=O)Nc2ccccc2F)N1 (stereo unspecified)	2%
Cc1nc2ccccn2c1C(=O)NCc1ccc2c(c1)OCO2	10%
COc1ccc(C(=O)Nc2cccc(C(=O)N3CCCC3)c2)cc1	15%
CCN(c1cccc(C)c1)c1ncnc2nc[nH]c12	-12%
Cc1nc(NCCc2cnc[nH]2)c2oc3ccccc3c2n1	24%
CC(C)(/C=N/O)/[N+]([O-])=C/c1ccco1	-3%
CCOC(=O)c1cc2sccc2n1Cc1ccccc1	-4%
O=C(CSc1nnc(-c2c[nH]c3ccccc23)o1)N1CCCCC1	18%
CN1C(=O)NC(NC(=O)C2CCCCC2)(C(F)(F)F)C1=O (stereo unspecified)	3%
Fc1ccccc1N1CCN(CCCNc2ccc3nncn3n2)CC1	4µM*[single pt active]
Cc1ccc(C2N(c3ccc(F)cc3)C(=O)C3CCCN32)cc1 (stereo unspecified)	14%
N#C/C(=C\c1ccc(O)c(O)c1)C(N)=S	-20%&-7%
CC(=O)CCc1c(C)[nH]c2ccc(NC(C)=O)cc2c1=O	-3%
CC(=O)c1cnc(Nc2nc(C)c3ccc(C)cc3n2)nc1C	22%
CCN(CC)C(=O)Oc1ccccc1NC(C)=O	1%

Later entries.
SMILES	AmpC inh no det
CCCn1c(C)nc2c(N3CCC(N(C)C)C3)nc(C)nc21 (stereo unspecified)	-2%
CCCCN(CC)CCNS(=O)(=O)c1ccc2c(c1)oc(=O)n2C	-3%
Nc1cccc(C(=O)Nc2ccc(N)cc2Cl)c1	-5%
Cc1ccc(S(=O)(=O)Cn2cnnn2)cc1	-4%
CC(C)(C)c1cc(CN2CCOCC2)c(C(=O)O)o1	-11%
COc1ccc(-c2nnc(SCC(=O)NC(=O)NCc3ccco3)o2)cc1	-6%
COc1ccc(C2NC3=C(CCC3)C3(C#N)C4(N=C(N)C23C#N)OCCO4)cc1 (stereo unspecified)	14%
COc1ccc(-c2cnc(SCC(=O)Nc3cc(C)on3)n2Cc2ccco2)cc1	21%
O=C(O)Cn1c(SC2CCCCC2)nc2ccccc21	-11%
C1CCN(c2nc(N3CCCCC3)nc(N3CCNCC3)n2)CC1	35%

The last 2 entries of the part above lead into the next.
SMILES	AmpC inh no det
O=C(O)Cn1c(SC2CCCCC2)nc2ccccc21	-11%
C1CCN(c2nc(N3CCCCC3)nc(N3CCNCC3)n2)CC1	35%
Cc1ccc(C(=O)O)cc1[N+](=O)[O-]	-12%
CS(=O)(=O)N1CCCC(C(=O)NCCc2ccc(Cl)cc2)C1 (stereo unspecified)	9%
CC1(C)CC2CC(C)(CN2C(=O)c2cc(-c3ccccc3O)on2)C1 (stereo unspecified)	-5%
CCOC(=O)CN1C(=O)C2(C(C#N)=C(N)Oc3ccccc32)C(C(=O)OC)=C1C (stereo unspecified)	8%
COC(=O)CSc1n[nH]c(-c2ccncc2)n1	-4%
CN(CC(=O)Nc1ccc2c(c1)OCCO2)S(=O)(=O)c1cccc2cccnc12	13%
COCCn1c(COc2ccc(OC)cc2)nc2ccccc21	24%
CN(C)CC1(c2ccccc2)CCCC1	2%
O=C(NCCCN1CCCC1=O)c1csc2ccccc12	4%
CC1Cc2ccccc2N1Cc1cc(=O)n2ccsc2n1 (stereo unspecified)	26%

Rewritten as labelled records: entries from further up
> CC1(C)CC2CC(C)(CN2C(=O)c2cc(-c3ccccc3O)on2)C1 (stereo unspecified)
  AmpC inh no det: -5%
> CCOC(=O)CN1C(=O)C2(C(C#N)=C(N)Oc3ccccc32)C(C(=O)OC)=C1C (stereo unspecified)
  AmpC inh no det: 8%
> Cc1ccc(C(=O)O)cc1[N+](=O)[O-]
  AmpC inh no det: -12%
> O=C(NCCCN1CCCC1=O)c1csc2ccccc12
  AmpC inh no det: 4%

(listing goes on)
SMILES	AmpC inh no det
CCOC(=O)N1CCN(c2nc3ccccc3nc2C(C#N)C(=O)NCCc2ccccc2)CC1 (stereo unspecified)	38%
CCOC(=O)C1Cc2ccccc2CN1 (stereo unspecified)	2%
CCCCN1C(=O)NC(=O)C2(Cc3c(nc4c(C)cccn4c3=O)N3CCc4ccccc4C32)C1=O (stereo unspecified)	-3%
CCCCn1nc(NC(=O)c2cccs2)c2cc3cc(OC)ccc3nc21	1%
CC(=O)c1c(C)oc(C)c1CSCc1ccc(C(=O)O)o1	-6%
O=C(NCc1ccccn1)C1COc2ccccc2O1 (stereo unspecified)	13%
CCN(CC)CC(=O)c1c[nH]c2ccc(C)cc12	-8%
Cc1ccccc1OCC(O)Cn1c(NCc2ccco2)nc2c1c(=O)[nH]c(=O)n2C (stereo unspecified)	25%
C[C@@H](C(=O)NCc1ccccc1)[C@H]1C[C@]1(C)[C@H](NC(=O)OCc1ccccc1)c1ccccc1	29%
CCOC(=O)c1cn(CC(=O)Nc2ccc3c(c2)OCCO3)nn1	-5%
CCC(=O)N(Cc1cc2cccc(C)c2[nH]c1=O)c1ccccc1OC	30%
COc1ccc(-n2c(SCc3ccc(C#N)cc3)nnc2-c2ccccn2)cc1	77%
COc1ccc(CN2CCOCC2)cc1Br	1%
O=C(CSc1nnc(-c2c[nH]c3ccccc23)n1-c1ccc(F)cc1)NCc1ccco1	4%
CCOC(=O)c1c(NC(=O)c2nn(CC)cc2Br)sc(C)c1C	55%
COCCNC(=O)C(c1cccs1)N(CCc1ccccc1)C(=O)Cn1nnc2ccccc21 (stereo unspecified)	118%
CCC(CC)C(=O)NCCNC(=O)C(CC)CC	15%
N#Cc1c(N2C(=O)C3C4C=CC(C4)C3C2=O)sc2c1CCC2 (stereo unspecified)	2%
O=C(C1CCN(S(=O)(=O)c2cnc[nH]2)CC1)N1CCN(Cc2ccc3c(c2)OCO3)CC1	19%
CC1=Nn2c(nnc2-c2ccc(F)cc2)SC1	1%
Cn1nccc1C(=O)Nc1ccc(OC(=O)c2ccnn2C)cc1	11%
O=C1CSC(=S)N1/N=C\c1ccc(Cl)c([N+](=O)[O-])c1	?
Cc1cccc(N2CCN(C(=O)CCn3c(=S)[nH]c4cc5c(cc4c3=O)OCO5)CC2C)c1 (stereo unspecified)	-4%
COCCCNC(=O)c1c(NC(=O)c2ccco2)n(Cc2ccccc2)c2nc3ccccc3nc12	95%
O=[N+]([O-])c1ccccc1-c1ccccc1	-12%
COC(=O)c1cccc(NC(=O)C2C3CCC(C3)C2C(=O)O)c1 (stereo unspecified)	-7%
Cc1cnc(C(=O)Nc2ccc(F)c(F)c2)cn1	5%
C=CCNc1ncnc2c1cnn2-c1ccc(Cl)cc1	8%
Cc1nn(CC(C)C)c(=S)[nH]c1=O	-2%
COc1ccc(CNC(=O)C2CCCN2S(=O)(=O)c2ccccc2)cc1 (stereo unspecified)	18%

Filtered by structure, those above containing a thiophene ring, fused or not.
SMILES	AmpC inh no det
CCOC(=O)c1cc2sccc2n1Cc1ccccc1	-4%
O=C(NCCCN1CCCC1=O)c1csc2ccccc12	4%
CCCCn1nc(NC(=O)c2cccs2)c2cc3cc(OC)ccc3nc21	1%
CCOC(=O)c1c(NC(=O)c2nn(CC)cc2Br)sc(C)c1C	55%
COCCNC(=O)C(c1cccs1)N(CCc1ccccc1)C(=O)Cn1nnc2ccccc21 (stereo unspecified)	118%
N#Cc1c(N2C(=O)C3C4C=CC(C4)C3C2=O)sc2c1CCC2 (stereo unspecified)	2%

The listing continues.
SMILES	AmpC inh no det
CCOC(=O)c1c(C(=O)OCC)c(C)n(N2C(=O)CSC2=S)c1C	6%
c1cncc(-c2cncnc2-n2ccnc2)c1	12%
CCOP(=O)(OCC)OCC	1%
COCCn1c(=O)[nH]c2cc(C(=O)NCCN3CCN(c4cccc(Cl)c4)CC3)ccc2c1=O	102%
COc1ccc(C(=O)N2CCC[C@@]3(CCN(c4ccccn4)C3)C2)cc1	36%
CNC(=O)c1nnn(-c2ccccc2)c1C(=O)NC	-3%
O=C(Cc1ccccc1)Nc1ccc(CN2CCOCC2)cc1	1%
S=c1[nH]nc(-c2cccnc2)n1Cc1ccccc1	0%
Cc1cc(C)cc(OCC(=O)NC2=NCCS2)c1	5%
COc1ccc(-c2nc3cnc(N(C)C)nc3n(C[C@H]3CCCO3)c2=O)cc1	2%
CCOC(=O)C1CCCN(C(=O)C2CCN(Cc3nc(-c4ccc(Cl)cc4)oc3C)CC2)C1 (stereo unspecified)	146%
O=C(Nc1ccncc1)c1ccccc1F	8%
C=CCNC(=O)C1CC(=O)N(c2ccc(OCC(=O)Nc3ccc(C)cc3)cc2)C1 (stereo unspecified)	31%
Oc1ccccc1CNCCCNCc1ccccc1O	-22%
Cc1cccc(Nc2nc(N)nc(CN3CCN(c4ccccc4)CC3)n2)c1	56%
Cc1cc(NC(=O)CCCC(=O)OCC(F)(F)C(F)F)cc(C)c1C(=O)O	10%
COc1ccc(OC)c(NC(=O)N[C@@H](Cc2ccccc2)C(=O)O)c1	-2%
Cc1nc2ccccc2c(=O)n1/N=C/c1ccc(O)cc1	-3%
O=C(O)c1ccc(-c2ccccc2)[nH]1	-6%
CSc1ccc(NC(=O)NCCCN2CCN(c3ccccc3F)CC2)cc1	-20%
CC(=O)c1c(NC(=O)C(C)C)nc(C)nc1-c1ccccc1	7%
CC12CN3CCN(CC(C3)C1O)C2 (stereo unspecified)	-11%
C(=C\c1ccccc1)/CSc1nnc(-c2ccccn2)n1Cc1ccco1	24%
Cn1c(SCC(=O)Nc2cccc(F)c2)nnc1-c1cc2ccccc2o1	8%
COc1ccccc1-c1cc(NCc2cccc(C)c2)ncn1	24%
CC(C)(C)NC(=O)C(c1ccc(OCC(N)=O)cc1)N(C(=O)c1cccnc1)C1CC1 (stereo unspecified)	-2%
CC1CCC/C(=C\Nc2ccccc2C(=O)O)C1=O (stereo unspecified)	-5%
COc1ccccc1OCc1ccc(C(=O)OCC2CCCO2)o1 (stereo unspecified)	38%
Cn1c(=S)c2[nH]c(SCCCc3ccccc3)nc2n(C)c1=O	-7%[5.75 µM]
CCOC(=O)c1ccc2nc(C(F)(F)F)[nH]c(=O)c2c1	0%
CN=Cc1sc2ccccc2c1O	-4%

Source: PubChem
